From PubChem
NPYLR7 agonist: activates Aedes aegypti NPYLR7 receptor | HEK293T NPYLR7/Galpha15, GCaMP6s calcium fluorescence | activation, % at 10 µM | actives 0.15% (n = 270,000) | AID 1259423; in the data active means activation above about 40%;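 further: 0% = vehicle and 100% = reference agonist at the receptor; some compounds past the cut are filed as inactive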
NPYLR7 agonist max-min: second read-out of NPYLR7 agonist, no call of its own (marks repeat the call); activation, %; measured here: Max-Min RFU normalised activation; some inactives read as strong as hits;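 span of the calcium signal over five minutes; 0% = vehicle and 100% = native peptide agonist; compound fluorescence can raise it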
* hit, by the source's call. These rows are one share of the data (hit frequency here may not be typical).

Compound	NPYLR7 agonist	NPYLR7 agonist max-min
O=C(COC(=O)c1ccc(N2C(=O)C3CCCCC3C2=O)cc1)c1ccc(Br)cc1 (centres undefined)	0	-2
COc1cc(C(=O)NC(C)C(C)C)cc(OC)c1Br (centres undefined)	3	0
O=S(=O)(NCc1ccccc1)Nc1cccc(-c2ccccn2)c1	-1	6
O=C(Nc1cc(F)ccc1F)N1CC(=O)N2CCc3ccc(F)cc3C2C1 (centres undefined)	-1	2
CN1CCC2(CC1)CC(O)c1cc(-c3ccc(C(=O)N4CCCC5CCCCC54)cc3)ccc1O2 (centres undefined)	16	6
Cc1sc2nc(SCC(=O)NCc3ccccc3)n(Cc3ccco3)c(=O)c2c1C	-6	-7
CCN(CC)c1ccc(CN(CC(C)C)C(=O)C2CCC2)c(OS(=O)(=O)CC)c1	8	-2
COc1cc2c(cc1OC)C(c1cccc(C(F)(F)F)c1)N(C(=O)Nc1cc(OC)c(OC)c(OC)c1)CC2 (centres undefined)	23	10
CN(C)C(=O)c1ccc(-c2cccc(C(F)(F)F)c2)s1	16	28
Cc1c(Cc2ccc3c(c2)OCO3)sc(NC(=O)c2ccc(Br)s2)c1C#N	9	7
CCOC(=O)c1nn(-c2ccc(C)cc2)c(=O)c2c(N)scc12	-4	-4
O=C(CCn1c(=O)oc2cc(Cl)ccc21)Nc1cccc(C2SCCCS2)c1	8	5
CCOCCn1c(=O)c2c(nc3n2CC(C)CN3c2cc(C)ccc2OC)n(C)c1=O (centres undefined)	4	1
CCC(C)(C)C1CCC2(CC1)NC(=O)N(CC(=O)NC1CCCCCCC1)C2=O (centres undefined)	10	14
Cc1ccc2c(c1)c(C(=O)N1CCC3(CCNCC3)CC1)nn2C	8	3
COC(=O)C1=C(C)N(C)C(=O)NC1c1c(F)cccc1F (centres undefined)	7	8
O=c1[nH]c(CSCCO)nc2c1C1(CCCCC1)Cc1ccccc1-2	-5	-12
CNC(=O)C1CCC(Cn2c(=O)c3sccc3n(Cc3ccccc3Cl)c2=O)CC1 (centres undefined)	4	-4
O=C(c1ccccc1S(=O)(=O)Cc1ccccc1)N1C[C@H]2CC=CC[C@H]2C1	8	7
O=C(Nc1cc(F)c(N2CCCC2)c(F)c1)C1CC1c1cccnc1 (centres undefined)	1	-1
CSc1ncnc2c1nnn2C	1	13
CCN(CC)S(=O)(=O)c1ccc(OC)c(C(=O)NC(C)c2cc(C)sc2C)c1 (centres undefined)	-14	-14
CC(NS(=O)(=O)c1ccc(F)cc1)c1nnc(SCc2ccccc2)n1-c1cc(Cl)ccc1Cl (centres undefined)	18	16
Cc1cc(/C=N\Nc2nc3ccccc3n2C)c(C)n1-c1ccc(Br)cc1	-3	-5
Cc1ccsc1C(C1C(=O)CC(C)(C)CC1=O)C1C(=O)CC(C)(C)CC1=O	13	10
CN(C)c1ccc(NC(=O)c2cc(F)ccc2Br)cn1	2	0
CCOC(=O)c1cc(S(=O)(=O)NC(C)(C)C)cn1C	3	-1
CNCc1cc(C(C)(C)C)n[nH]1	-18	-21
NC(=Nc1nc(CSc2ccc(Cl)cc2)cc(=O)[nH]1)Nc1ccccc1	3	2
CC(c1ccco1)N(C)C(=O)Nc1cccc(S(C)=O)c1 (centres undefined)	7	5
CCc1csc(CNC(=O)C2=C(C)NC(=O)NC2C)n1 (centres undefined)	1	-3
O=C(CNCc1ccccc1)NCC(=O)Nc1ccc(Cl)cc1	-11	-16
COCCN1CCN(C[C@@H]2C=C(C)[C@H](Cc3nnc(COc4ccc(F)cc4)o3)C[C@H]2C(C)C)CC1	-6	-10
CCOC(=O)[C@H]1C[C@]2(CCCCNC2=O)N(C(=O)c2cccs2)[C@H]1c1ccco1	-1	7
Cc1cc(C(=O)O)c(O)c(S(=O)(=O)N(C)c2ccc(F)cc2)c1	8	4
CN(CC(O)COCc1ccccc1)C(=O)Nc1ccc(F)cc1F (centres undefined)	1	0
O=C(c1ccc(F)c(F)c1)N1CCc2ccccc2C1c1ccccc1F (centres undefined)	18	11
CCC(NC(=O)N1CC2C3CCC(O3)C2C1)c1ccc(C)cc1 (centres undefined)	1	0
CN(CC(=O)Nc1cccc(F)c1)C(=O)c1ccc(-c2ccccc2F)o1	-2	-5
Cn1c(C2CCN(S(C)(=O)=O)CC2)nn(CC(=O)N2CCCC2)c1=O	-4	3
CC1CCCCC1(NC(=O)OC(C)(C)C)C(=O)NCc1ccccc1 (centres undefined)	-6	-7
Cc1ccc(-c2cnoc2NC(=O)CSc2nc(-c3ccccc3)cc(=O)[nH]2)cc1	1	-3
CC(C)Oc1cccnc1C(=O)N1CCN(C(C#N)C(C)C)CC1 (centres undefined)	3	1
CCC(C)N(Cc1ccncc1)C(=O)c1ccc(Cl)s1 (centres undefined)	5	4
O=C(CC(c1ccc(Cl)c(Cl)c1)c1c[nH]c2ccccc12)N1CCC2(CC1)OCCO2 (centres undefined)	32	30
COc1ccccc1C(C)(C)CNc1cn[nH]c(=O)c1Cl	-3	-3
Cc1[nH]n(-c2ccc(Cl)cc2)c(=O)c1C1=C(c2c[nH]c3ccccc23)C(=O)N(Cc2ccc(F)cc2)C1=O	4	5
Cc1cccc2sc(N3CCN(C(=O)C4CCCN4S(=O)(=O)c4cccs4)CC3)nc12 (centres undefined)	-5	-5
CCCc1[nH]n(-c2cccc(Cl)c2)c(=O)c1C1=C([n+]2cccc(CC)c2)C(=O)N(C(C)C)C1=O	-19	-13
COc1cccc(OCCSc2nnc3sc4ccccc4n23)c1	2	9

(listing goes on)
Compound	NPYLR7 agonist	NPYLR7 agonist max-min
COCCn1c(C)cc(C(=O)CN2C(=O)NC3(CCCCCCC3)C2=O)c1C	2	-2
CC(=O)N1CCc2c(sc(NC(=O)c3cc([N+](=O)[O-])ccc3Cl)c2C#N)C1	1	-1
COc1ccc(Cl)c(S(=O)(=O)Nc2ccnn2C(C)C)c1	3	0
CN1CC2(CCN(C(=O)c3csc(-c4cccs4)n3)C2)OC1=O (centres undefined)	14	13
CN(C(=O)CCCn1nc(-c2cccs2)ccc1=O)c1ccccc1	6	12
C=CCOC(=O)C1=C(C)Nc2nc(SCC=C)[nH]c(=O)c2C1c1ccc(C(=O)OC)cc1 (centres undefined)	3	1
CC1(C(=O)NS(=O)(=O)c2ccccc2)CCN1C(=O)C1(c2ccc(Cl)cc2)CC1 (centres undefined)	4	3
N#CCNC(=O)C1(c2ccccc2)CCN(C(=O)CCN2C(=O)CCNC2=S)CC1	13	6
NC(=O)Cc1csc(NC(=O)CSCc2ccc(Cl)s2)n1	0	1
COCCCN(CC(=O)N(CCc1ccc(OC)c(OC)c1)Cc1sccc1C)S(=O)(=O)c1ccc(NC(C)=O)cc1	2	5
CCc1ccc(S(=O)(=O)NCCc2csc(-c3ccc(F)cc3)n2)s1	4	5
CN1CCN(CCn2cnc3c2c(=O)n(C)c(=O)n3C)CC1	8	9
NC(=O)c1c(NC(=O)CCCCl)sc2c1CCCC2	-4	-6
CCNC(=O)N(Cc1ccc(F)cc1)Cc1cc(NC(=O)C2CCCC2)ccc1N(C)C	-2	8
CN(CC(=O)NC(C)(C)C)C(=O)NCCCOc1ccccc1F	1	-4
CC1(C(=O)NS(=O)(=O)Cc2cccc(Cl)c2)CCN1C(=O)CC1CCCC1 (centres undefined)	-2	-7
Clc1cc(Br)ccc1OCc1nc(-c2ccncc2)no1	23	21
O=C(NCc1nncn1C1CCCCC1)c1cc2sccc2[nH]1	-5	-8
COc1ccccc1-c1noc(CSc2nc3ccccc3o2)n1	16	16
CN(C)S(=O)(=O)c1ccc(C(=O)NCc2ccccc2F)cc1	-7	-8
Cc1cc(Oc2cccc(F)c2)nc(SCc2ccccc2Cl)n1	1	14
CCn1c(SCC(=O)c2ccccc2)nc2c(c1=O)SC(C)C2 (centres undefined)	-1	-5
O=C(NC(c1ccc(F)cc1)c1cnccn1)C1CCN(Cc2cccs2)CC1 (centres undefined)	-10	-15
COc1ccc2cc(C(C)N3CCOC(C(N)=O)C3)ccc2c1 (centres undefined)	-11	-12
O=C(/C=C/c1cnccn1)NCC1(c2ccc(Cl)cc2)CCOCC1	-1	-2
CCCN(Cc1c(-c2ccccc2)nn(C)c1Oc1ccc(F)cc1)CC(O)COc1ccccc1C (centres undefined)	-6	-1
CCc1[nH]n(-c2ccc(Cl)c(Cl)c2)c(=O)c1C1=C([n+]2ccc(C)c(C)c2)C(=O)N(C(C)C)C1=O	-8	2
COc1cccc(-c2[nH]nc3c2C(c2nc(C)n4ccccc24)CC(=O)N3)c1 (centres undefined)	18	8
COc1cccc(/C=C2\Oc3c(ccc4c3CN(Cc3ccncc3)CO4)C2=O)c1	67*	55*
CC1CC(C)CN(S(=O)(=O)c2cccc(C(=O)OCc3cc(=O)n4ccsc4n3)c2)C1 (centres undefined)	2	6
O=C(NC1CC2CCC(C1)N2CC1CCCO1)c1c(F)c(F)c(F)c(F)c1F (centres undefined)	-1	-10
CCC(C)N(Cc1ccc(OC)c(OS(C)(=O)=O)c1)C(=O)c1ccccc1OC (centres undefined)	-9	-3
Nc1nc(N)nc(CN2CCCc3ccccc32)n1	8	9
COc1ccc(-c2cc3ccc4c(c3oc2=O)CN(C2CC2)CO4)cc1OC	27	32
COc1ccc(N2CCN(C(=O)c3ccccc3F)C(C)C2=O)c(OC)c1 (centres undefined)	11	8
CC1(C(=O)NS(=O)(=O)c2ccc(Cl)cc2)CCN1C(=O)C1(c2ccc(Cl)cc2)CCC1 (centres undefined)	-2	-1
CCC(NC(=O)Cc1cn2ccsc2n1)c1nc(C)c(C)s1 (centres undefined)	5	3
O=c1c2cc(Cl)ccc2nc(CCc2ccccc2)n1Cc1ccccc1	-1	-3
CCOC(=O)Cn1c(C2CC(=O)N(c3ccccc3C)C2)nc2ccccc21 (centres undefined)	0	32
CNC(=O)[C@H]1CN(C(=O)c2ccco2)[C@]2(C)C(=O)Nc3ccccc3[C@H]12	1	16
Cc1ccc(CN(C)C(=O)C2CCN(S(=O)(=O)c3ccc4c(c3)CCC4)CC2)o1	3	1
CCc1cn[nH]c1C1CCN(C(=O)c2cc(=O)[nH]c3ccc(F)cc23)CC1	5	3
COc1ccc(Cl)cc1S(=O)(=O)N1CCC(c2c[nH]c3c(C)cccc23)CC1	5	9
COCc1nc(NCCc2c[nH]c3ccccc23)c2cnn(C)c2n1	-1	-5
COc1cccc(Cc2nc3c(c(N4CCOCC4)n2)CN(C(=O)Nc2ccccc2Br)CC3)c1	11	13
O=C(CCCOc1ccccc1)NC1CCCCCC1	-7	-13
COc1ccc(N2CCN(C(=O)CC3CSc4nc5c(c(=O)n43)CCC5)CC2)cc1 (centres undefined)	0	0
O=C(CC(c1cccc(O)c1)c1ccccc1O)N1CCCCCCC1 (centres undefined)	20	13
OCCCc1nc2ccccc2[nH]1	18	30
O=C(Nc1nncs1)C1CCCN(C(=O)C2(c3ccc(Cl)cc3)CCCC2)C1 (centres undefined)	5	0

By substructure: the compounds so far with a CF3 group.
Compound	NPYLR7 agonist	NPYLR7 agonist max-min
COc1cc2c(cc1OC)C(c1cccc(C(F)(F)F)c1)N(C(=O)Nc1cc(OC)c(OC)c(OC)c1)CC2 (centres undefined)	23	10
CN(C)C(=O)c1ccc(-c2cccc(C(F)(F)F)c2)s1	16	28

The listing picks up, repeating the 7 entries before the break.
Compound	NPYLR7 agonist	NPYLR7 agonist max-min
COCc1nc(NCCc2c[nH]c3ccccc23)c2cnn(C)c2n1	-1	-5
COc1cccc(Cc2nc3c(c(N4CCOCC4)n2)CN(C(=O)Nc2ccccc2Br)CC3)c1	11	13
O=C(CCCOc1ccccc1)NC1CCCCCC1	-7	-13
COc1ccc(N2CCN(C(=O)CC3CSc4nc5c(c(=O)n43)CCC5)CC2)cc1 (centres undefined)	0	0
O=C(CC(c1cccc(O)c1)c1ccccc1O)N1CCCCCCC1 (centres undefined)	20	13
OCCCc1nc2ccccc2[nH]1	18	30
O=C(Nc1nncs1)C1CCCN(C(=O)C2(c3ccc(Cl)cc3)CCCC2)C1 (centres undefined)	5	0
COc1ccc2cc([C@H](C)C(=O)Nc3cnc4n3CCCC4)ccc2c1	30	16
COc1ccc(OC)c(C=NNC(=O)CCn2c3ccccc3c3ccccc32)c1	4	5
Cc1ccc(CN2CCC2(C)C(=O)NC2CCc3ccccc32)cc1 (centres undefined)	2	0
CCOC(=O)c1nn(-c2ccc(C)cc2)c(=O)cc1OS(=O)(=O)c1ccccc1Cl	5	3
COc1ccc(Cc2[nH]n3c(=O)c(Cl)c(C)nc3c2-c2ccccc2)cc1	-16	-21
CC(C)(C)NC(=O)C1CCCCN1C(=O)c1cc(F)cc(F)c1 (centres undefined)	6	4
CCc1nc2c(OCc3ccc(C(=O)OC)cc3)cccn2c1N(C)C(=O)c1ccc(OC)cc1	-11	-13
Cc1nnc2ccc(-c3cccc(NC(=O)C4CCCC4)c3)nn12	-10	-2
CN(C)CCNC(=O)c1nn(-c2cccc(C(F)(F)F)c2)c(=O)n(Cc2ccccc2F)c1=O	-4	4
COc1cc(C(=O)N2CCc3ccccc3C2c2ccccc2F)cc(OC)c1OC (centres undefined)	11	0
CC(NC(=O)c1ccc2c(c1)OCO2)c1nnc(SCc2ccccc2)n1-c1ccc([N+](=O)[O-])cc1 (centres undefined)	-5	-2
CN(Cc1cccnc1)C(=O)CC(c1ccccc1)c1ccccc1F (centres undefined)	3	-3
CCC(c1cccnc1)N(C)Cc1ccccc1 (centres undefined)	-4	-7
